FGF22 binding = FGF22 (human) thermal shift binding; Q9HCT0; recombinant FGF22 thermal shift, SYPRO orange fluorescence; percent of sucrose octasulfate shift, DMSO zero; calls only at 9.99 µM; 340,000 compounds, 1.5% hits;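 active = melting point raised past a set limit in the mean and every replicate; inconclusive = no clear call; three in four hits are not shown here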
Target sequence (Q9HCT0 whole entry, looked up): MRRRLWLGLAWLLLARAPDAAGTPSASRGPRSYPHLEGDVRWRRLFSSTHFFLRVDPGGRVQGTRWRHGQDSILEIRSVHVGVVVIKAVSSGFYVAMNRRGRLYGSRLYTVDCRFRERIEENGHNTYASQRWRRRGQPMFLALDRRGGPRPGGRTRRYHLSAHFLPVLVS
ALR H2O2 inh = blocks human ALR sulfhydryl oxidase activity. P55789. purified ALR, DTT oxidation, H2O2 HRP-luminol luminescence. inhibition, % (no concentration beside the values). 290,000 compounds, 3.8% hits. AID 485317;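 active = mean and each replicate at 75% or more; inconclusive = only one of the two met; inactive = neither met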;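 also: stock transfer was 7.5 nL into about 7.5 µL; 0% = neutral wells and 100% = wells with inactivated enzyme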
Target sequence (P55789 whole entry, looked up): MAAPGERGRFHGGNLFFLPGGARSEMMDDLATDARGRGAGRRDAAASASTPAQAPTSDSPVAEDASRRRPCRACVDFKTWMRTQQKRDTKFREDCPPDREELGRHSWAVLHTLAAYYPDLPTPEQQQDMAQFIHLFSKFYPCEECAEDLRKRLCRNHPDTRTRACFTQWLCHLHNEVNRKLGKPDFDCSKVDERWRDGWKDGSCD
HNF4A DNA FP = change in binding of human HNF4 alpha to DNA; activity change, % at 10 µM; HNF4a-FITC DNA binding, fluorescence polarization, 1 h; 360,000 compounds, 0.3% hits; in the data active = activity change above about 30%, passing the limit was not always enough;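 also: controls were the assay level and a saturating level of protein; the project sought stronger binding though the title names inhibitors; some compounds called inactive have numbers as strong as hits; positive values seem to mean higher polarization but the record does not say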
Target sequence (P41235 whole entry, looked up): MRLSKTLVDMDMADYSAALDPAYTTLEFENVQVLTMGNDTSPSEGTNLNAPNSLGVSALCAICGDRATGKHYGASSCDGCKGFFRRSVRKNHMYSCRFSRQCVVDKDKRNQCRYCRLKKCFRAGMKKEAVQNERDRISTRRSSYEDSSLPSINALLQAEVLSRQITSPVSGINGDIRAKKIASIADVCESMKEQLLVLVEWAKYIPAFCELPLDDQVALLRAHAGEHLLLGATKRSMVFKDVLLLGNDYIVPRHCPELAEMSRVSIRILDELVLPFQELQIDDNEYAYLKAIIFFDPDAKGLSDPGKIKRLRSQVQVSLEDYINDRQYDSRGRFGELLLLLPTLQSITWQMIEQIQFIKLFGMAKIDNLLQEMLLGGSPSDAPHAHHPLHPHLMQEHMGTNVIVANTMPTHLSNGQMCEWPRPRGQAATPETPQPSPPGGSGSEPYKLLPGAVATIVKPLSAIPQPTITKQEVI
MLL AF4-AF9 inh = blocks AF4 peptide binding to human AF9; P42568; AlphaScreen, biotin-AF4 peptide binding to FLAG-AF9; inhibition, % at 10 µM; 350,000 compounds, 0.47% hits; AID 651704;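 active = every replicate reaching a set inhibition limit, whatever the replicate mean, cut at about 25% in these data; inconclusive = mean inhibition reaches that limit but some replicates miss it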;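 also: 0% = plate neutral control median and 100% = total signal loss; the record names both 10 and 1 µM as test concentration; the first replicate is given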
Vif TR-FRET = inhibitors of Vif binding to APOBEC3G peptide, primary screen, biochemical, TR-FRET, GST-Vif 1-94, biotin-A3G peptide, dose response retest (AID 1117319); inhibition, %; hits with a dose series show IC50 in µM; TR-FRET GST-Vif / biotin-A3G peptide binding; higher % means a stronger effect; test concentration not given here; strong numbers were not always called active; 260,000 compounds, 0.57% hits;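 active = above the screen mean plus three standard deviations and confirmed in dose response; inconclusive = results disagree or hit not tested in dose response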;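 also: Vif residues 1-94 fused to GST binding biotinylated APOBEC3G peptide 110-148; 0% = full assay without inhibitor and 100% = GST in place of GST-Vif; retest series ran down from 100 µM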
rRNA inh HTS = inhibits bacterial ribosomal RNA function over humanized ribosomes. E. coli WT GFP vs humanized-ribosome RFP mutants, fluorescence, 24 h; stronger effect = lower value; DMSO median 0, no signal -100. GFP signal change (wild-type ribosome), % (no concentration beside the values). 350,000 compounds, 1.6% hits. AID 720706;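 active = significant combined selectivity score with lowered wild-type GFP, culture density cut under 30%, mutant RFP and density less affected; inactive = any of these conditions unmet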; also: one replicate is shown; some compounds called inactive have numbers as strong as hits
Ecoli growth = inhibitors of Escherichia coli growth. OD600, 23 h; stronger effect = lower value. OD600 absorbance (test concentration not listed). 330,000 compounds, 0.21% hits;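 active = OD600 absorbance below the run mean of sample wells minus 3.6 SD, in any replicate, cut at about 0.56 in these data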;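 also: stock transfer was 300 nL into about 60 µL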
rRNA inh HTS OD600 = also measured in rRNA inh HTS; calls as there; OD600 change, %; measured here: OD600 growth;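 optical density of the mix in the first replicate; 0 = DMSO median and -100 = no signal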
rRNA inh HTS RFP = also measured in rRNA inh HTS; calls as there; RFP signal change, %; measured here: RFP humanized mutant strains;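 first replicate; 0 = DMSO median and -100 = no signal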
The depositor's hits bear a star; i = inactive; u = inconclusive; x = not tested or not shown; & = joins results of further samples. These rows are one share of the data; count on the stated rates, not on these rows.

no.	SMILES	ALR H2O2 inh	FGF22 binding	HNF4A DNA FP	rRNA inh HTS RFP	rRNA inh HTS	Ecoli growth	rRNA inh HTS OD600	Vif TR-FRET	MLL AF4-AF9 inh
1	O=c1cc(CSc2nnc(Nc3ccccc3F)s2)nc2sccn12	-10	x	-2.1	17	15	0.74	13	-11%	-1.0
2	C[C@@H]1CCCCO[C@@H](CN(C)C(=O)Cc2ccccc2)[C@@H](C)CN([C@H](C)CO)C(=O)c2cc(NS(=O)(=O)c3ccc(F)cc3)ccc2O1	x	i	x	-2.0	3	x	-12	x	0.1
3	CCN(CC)c1ccc(NC(=O)CN2C(=O)CC(C)(C)S(=O)(=O)c3ccccc32)c(C)c1	99*	i	-1.3	0.4	-3	0.74	-4	11%	-2.7
4	O=C(N[C@H]1CC[C@@H](CCn2cc(-c3cccnc3)nn2)O[C@H]1CO)c1ccccc1F	x	i	x	-3.1	1	x	1	x	5.3
5	COc1ccc2[nH]c(C(=O)O)c(NS(=O)(=O)c3ccc(Cl)s3)c2c1	99*	x	-0.2	x	x	0.65	x	-3%	x
6	N#Cc1ccc(/C=N/NC(=O)CCc2ccc(S(=O)(=O)N3CCOCC3)cc2)cc1	-31	x	-2.4	x	x	x	x	1%	x
7	CC(C)CC#Cc1ccc2c(c1)O[C@@H](CN(C)C)[C@H](C)CN([C@@H](C)CO)S2(=O)=O	x	i	x	0.1	-1	x	-4	x	4.4
8	CCC[C@@H](CN1CCC[C@H]1CN1C(N)=NC[C@H]1CC(C)C)N1C[C@@H]([C@H](C)CC)N(CCCC2CCCC2)C1=N	x	i	0.2	x	x	0.43*	x	4%	10
9	Cc1ccc2nc(N3CCCCC3)c(C=O)c(=O)n2c1	20	x	x	x	x	0.7	x	20%	x
10	Cc1cc(C)n(-c2c(F)c(F)c(CO)c(F)c2F)n1	3	x	3.1	x	x	0.69	x	-1%	x
11	Cc1nn2c(=O)cc(COC(=O)c3ccc(NC(=O)C(C)(C)C)cc3)nc2s1	1	i	-1.9	-1.8	7	0.7	17	1%	-4.6
12	CCc1ccc(N2CC(C(=O)Nc3cccc(S(=O)(=O)N4CCCC4)c3)CC2=O)cc1 (centres undefined)	-13	i	1.9	-3.0	-20	0.68	-25	-10%	-5.5
13	Cc1ccc(C)c(NC(=O)CSc2nnc(CNC(=O)c3ccco3)o2)c1	-2	i	-1.4	0.8	1	0.64	-5	x	0.5
14	COc1ccc(C(=O)C(OC(=O)c2ccccc2)c2ccccc2)cc1 (centres undefined)	-3	x	-2.4	x	x	0.69	x	10%	x
15	O=C(c1ccc(Cl)cc1[N+](=O)[O-])N1CCN(c2ccccn2)CC1	-22	x	0.2	x	x	0.69	x	-8%	x
16	Cc1ccc(CNC(=S)Nc2ccc(C)c([N+](=O)[O-])c2)cc1	-4	x	-2.0	x	x	0.71	x	x	x
17	C=CCSc1nnc(NC(=O)C2CC(=O)N(c3ccc4c(c3)OCCO4)C2)s1 (centres undefined)	-1	i	-1.7	-1.6	2	0.69	-6	x	0.0
18	CC(C)NC(=O)C1(C)CCCCN1Cc1cccc(C(F)(F)F)c1 (centres undefined)	x	i	-1.5	0.7	15	x	14	x	0.2
19	CC1=C(C(=O)N2CCOCC2)CC(CC(=O)NC(c2ccccc2)c2ccccc2)C(=O)N1CCCN1CCCC1=O (centres undefined)	x	i	4.3	2.7	17	x	10	4%	-3.1
20	COCC(=O)N1CC(=O)N2[C@H](C1)[C@H](c1ccc(Br)cc1)[C@@H]2CO	x	i	x	-5.5	7	x	12	x	-2.8
21	Cc1ccc(C)c(OCC(=O)NCCN(C)C)c1	-3	x	1.2	x	x	0.81	x	0%	x
22	CCOC(=O)c1ccc(N2C(=O)CC(N3CCN(Cc4ccccc4)CC3)C2=O)cc1 (centres undefined)	4	x	1.3	x	x	0.7	x	5%	x
23	CSCCC(NC(=O)c1ccccc1)C(=O)OCC(=O)Nc1ccc(C)c(Cl)c1 (centres undefined)	-2	x	-2.1	x	x	0.66	x	-3%	x
24	CCc1ccc(CN(C)C(=O)CCc2nnc(Cc3cccc(C)c3)o2)nc1	x	i	3.9	0.1	3	0.65	-9	16%	-0.7
25	C[C@H]1CN([C@@H](C)CO)C(=O)Cc2cc(NC(=O)Nc3ccc4c(c3)OCO4)ccc2O[C@@H]1CN(C)C(=O)NC1CCCCC1	x	i	x	-1.0	2	x	-1	x	0.9
26	CCCCN(C)C(=O)c1cccc(OC2CCN(CC(C)(C)C)CC2)c1	0	i	-2.6	-0.4	7	0.67	10	-5%	0.0
27	Cc1ccsc1C(=O)OCC(=O)NCCc1ccccc1	-5	i	-1.1	0.7	1	0.69	2	x	-3.0
28	N#CC1=C(SCC(=O)Nc2ccc(C(=O)O)cc2)NC(=O)CC1c1ccco1 (centres undefined)	98*	x	-15	4.3	16	0.72	5	x	-2.9
29	O=C(C[C@@H]1C=C[C@@H](NS(=O)(=O)c2ccc(F)cc2)[C@@H](CO)O1)NCc1ccncn1	x	i	x	2.0	1	x	4	x	-0.8
30	Cc1c(C(=O)NNC(=O)c2cccnc2)cccc1[N+](=O)[O-]	0	i	2.5	-2.7	1	0.72	4	x	-1.1

Looked up above:
Under HNF4A DNA FP, cpd 15 reads 0.2
Under rRNA inh HTS, cpd 18 reads 15

Additional entries follow:
no.	SMILES	ALR H2O2 inh	FGF22 binding	HNF4A DNA FP	rRNA inh HTS RFP	rRNA inh HTS	Ecoli growth	rRNA inh HTS OD600	Vif TR-FRET	MLL AF4-AF9 inh
31	O=C(N/N=C/c1cccc(O)c1)c1cc(C2CC2)nc2ccccc12	23	i	2.4	-1.9	2	x	9	x	5.4
32	CO[C@@H]1CN(C)C(=O)c2cc(NC(=O)c3cc(C)on3)ccc2OC[C@H](C)N(C)C[C@H]1C	x	i	x	1.3	0	x	-8	x	-2.7
33	CC(C)n1c(SCC(N)=O)nc2c1c(=O)n(C)c(=O)n2C	-3	i	2.5	0.0	8	0.66	-1	u	-29
34	Cc1cc(C(=O)Nc2cccc(C(=O)O)c2)oc1C	42	x	0.2	x	x	0.76	x	0%	x
35	CCOc1ccc(N(CC(=O)NCc2ccc(OC)cc2)C(=O)CCC(=O)Nc2nccs2)cc1	-8	i	-3.5	-1.2	4	0.67	5	x	2.8
36	CCOC(=O)Cn1nnnc1C(CC)N(Cc1ccccc1)Cc1cc2cc(C)ccc2[nH]c1=O (centres undefined)	-3	x	-2.0	x	x	0.75	x	-10%&19%	x
37	Cc1cc(C)n(-c2ccc(NC(=O)C3CCCCN3C(=O)c3ccoc3C)cc2)n1 (centres undefined)	-17	i	-5.2	1.0	1	0.68	-2	x	0.1
38	O=C1CC2(CCN(C(=O)C3CC(=O)N(c4ccccc4)C3)CC2)Oc2ccccc21 (centres undefined)	0	i	2.5	-1.6	3	0.69	4	1%	0.7
39	COC(=O)CCC(=O)Nc1ccc(Cl)c(Cl)c1	-8	x	0.0	x	x	0.64	x	9%	x
40	Clc1cccc(CSc2nc3ccncc3[nH]2)c1	54	i	4.2	-4.5	-3	0.58	-50	-2%	7.0
41	O=C(Nc1ccc(C(F)(F)F)cc1)N[C@H]1C=C[C@@H](CC(=O)N2CCCCC2)O[C@H]1CO	x	i	x	-0.9	-14	x	-2	x	-0.8
42	CC(C)CNC(=O)CCc1c[nH]c2ccccc12	13	x	-1.4	x	x	0.74	x	5%	x
43	CCCC1CCc2c(sc(NC(=O)OCC)c2C#N)C1 (centres undefined)	3	x	3.1	x	x	0.73	x	x	x
44	O=C(CN1CCCCC1)Nc1cccc(Cl)c1	0	i	1.2	3.3	20	0.69	13	-4%	0.0
45	CO[C@H]1CN(C)C(=O)c2ccc(NC(=O)c3ccccc3)cc2OC[C@@H](C)NC[C@H]1C	x	i	x	0.7	3	x	0	x	-1.3
46	Cc1ccc(Cn2c(=O)n(C)c(=O)c3sccc32)cc1	-11	i	1.8	-0.3	10	0.7	7	x	-0.1
47	O=C1CCCN1CCCNS(=O)(=O)c1cccc(F)c1	x	i	-1.5	-1.6	2	0.7	13	18%	-1.2
48	COc1ccc(OC)c(-n2c(=S)[nH]c3cc(C(=O)N(C)Cc4ccccc4)ccc3c2=O)c1	18	i	0.2	4.1	2	0.7	4	2%	-7.3
49	Cn1cccc1Cc1nnc(SCC(=O)NC2CCCCC2)n1-c1ccc(F)cc1	40	i	1.4	-1.0	9	0.75	14	4%	2.4
50	CCCN(C)C[C@H]1Oc2ncc(C#CCN(C)C)cc2C(=O)N([C@H](C)CO)C[C@@H]1C	x	i	x	0.1	-3	x	-12	x	7.8
51	O=C(c1cccnc1)N1CCCCN2[C@H](C1)[C@H](c1ccc(C#Cc3ccccn3)cc1)[C@@H]2CO	x	i	x	-0.1	-1	x	11	x	25*
52	CCOC(=O)c1c(N)sc(C(O)(C(F)(F)F)C(F)(F)F)c1-c1ccc(F)cc1	39	x	-1.5	x	x	0.7	x	-12%	x
53	Cc1ccc(S(=O)(=O)N2CCC(C(=O)OC3CCOC3=O)CC2)cc1C (centres undefined)	2	x	0.1	0.7	4	0.71	6	3%	-0.8
54	COc1ccc(N(C)C(=O)c2ccc3snnc3c2)cc1	12	i	6.2	-3.2	2	0.77	0	-1%	-1.5
55	COc1ccc(CNC(=O)COC(=O)C2=Cc3ccccc3OC2)cc1	x	i	2.1	25	-1	x	-17	x	0.2
56	CC(Oc1ccccc1)c1nnc(N)s1 (centres undefined)	-17	i	1.7	2.5	22	0.62	17	21%	-1.3
57	Cc1oc2ccc(OCc3ccc(F)cc3Cl)cc2c1C(=O)O	-4	i	1.7	3.5	-9	0.67	5	-3%	-1.4
58	CCNC(=O)C1(C)CCN(C(=O)c2ccccc2F)C1 (centres undefined)	x	i	-0.1	-0.4	14	x	29	x	-2.1
59	CO[C@H]1CN(C)C(=O)c2cc(NC(=O)c3cnccn3)ccc2OC[C@H](C)N(C)C[C@@H]1C	x	i	x	-0.5	2	x	5	x	-1.8
60	C[C@@H]1CN([C@H](C)CO)C(=O)c2cccc(NS(=O)(=O)c3cn(C)cn3)c2O[C@H]1CN(C)Cc1ccncc1	x	i	x	-1.0	5	x	-2	x	0.1
61	O=C(c1ccc(CS(=O)Cc2ccc(Cl)cc2)o1)N1CCN(c2ccccc2F)CC1 (centres undefined)	14	i	3.0	9.0	-15	0.72	-42	x	3.8
62	OC(c1ccccc1)(c1ccccc1)C1CCN(C(=S)NC2CCCC2)CC1	-22	i	-4.8	-1.8	-4	0.72	0	x	-1.9
63	COC(=O)[C@]1(Cc2ccccc2)N[C@H](CN(C)C(=O)Nc2ccc(C(F)(F)F)cc2)[C@@H]2C(=O)N(Cc3ccccc3)C(=O)[C@@H]21	x	i	0.4	-3.4	-9	0.7	-8	-5%	-2.4
64	O=C1c2ccccc2[C@@H]2C[C@@H](O)[C@H](Nc3ccccc3Cl)CCN12	x	i	-3.9	-7.9	-26	0.69	-31	-2%	2.4
65	CC(=O)Nc1ccc(C2Nc3cc(C)c(C)cc3NC3=C2C(=O)CC(C)(C)C3)cc1 (centres undefined)	63	i	-1.0	74	26	0.7	-17	-7%	4.4
66	O=C(Nc1ccc2c(c1)OCCO2)C1CC1c1ccccc1 (centres undefined)	-27	x	2.1	x	x	0.67	x	-3%	x
